# TRPML1 ag – human mucolipin-1 channel agonism; activation, % (concentration not given with the values); hit rate 0.12% among 410,000; TRPML1-expressing cells, Ca2+ dye fluorescence, FDSS; host cell line not named in the record; reference of the full effect not given here; Q9GZU1; AID 624414; in the data active = activation above about 50%; inconclusive = about 30% to 50%; inactive = below about 30%; further: 0% is about no effect; the text of the record puts the active cut at 80%
#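 In this qHTS format, compounds were pin-transferred onto Ca8-dye-loaded TRPML1-DL cells induced with Tet overnight, and intracellular Ca2+ fluorescence was recorded kinetically for 110 s after a 10 s baseline. A subsequent 4uM final 54-4 (EC80) addition followed by a second 110 s read served as the antagonist phase.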
# D2 potentiator – positive allosteric modulators of human D2 dopamine receptor | hit rate 0.23% among 360,000 | potentiation, % (test concentration not listed) | DiscoveRx D2 beta-arrestin cells, luminescence, 90 min; 100% = 57 uM dopamine signal | P14416; active = potentiation of 50% or more; inconclusive = 30% to 50%; inactive = 30% or less;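 further: compound concentration not given in the record; tested on top of an EC20 dose of dopamine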
#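 PathHunter beta-arrestin assay in DiscoveRx D2 cells. Compounds were added with an EC20 of dopamine (50 nM final) for 90 min at 37 deg C. Luminescence was read 1 h after detection reagent, with 57 uM dopamine as the EC100 control.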
# TRPV1 potentiator – enhances activation of the human vanilloid receptor TRPV1; Q8NER1; TRPV1-expressing cells, Fluo-8 calcium influx, capsaicin EC20 potentiation; host cell line not named in the record; control for the full effect not named in the record; potentiation, % at 8.33 µM; hit rate 0.02% among 320,000; AID 540277; active means potentiation above 80%; inconclusive means 30% to 80%; inactive means below 30%; further: 0% is about no effect
# Target sequence (Q8NER1 whole entry, looked up): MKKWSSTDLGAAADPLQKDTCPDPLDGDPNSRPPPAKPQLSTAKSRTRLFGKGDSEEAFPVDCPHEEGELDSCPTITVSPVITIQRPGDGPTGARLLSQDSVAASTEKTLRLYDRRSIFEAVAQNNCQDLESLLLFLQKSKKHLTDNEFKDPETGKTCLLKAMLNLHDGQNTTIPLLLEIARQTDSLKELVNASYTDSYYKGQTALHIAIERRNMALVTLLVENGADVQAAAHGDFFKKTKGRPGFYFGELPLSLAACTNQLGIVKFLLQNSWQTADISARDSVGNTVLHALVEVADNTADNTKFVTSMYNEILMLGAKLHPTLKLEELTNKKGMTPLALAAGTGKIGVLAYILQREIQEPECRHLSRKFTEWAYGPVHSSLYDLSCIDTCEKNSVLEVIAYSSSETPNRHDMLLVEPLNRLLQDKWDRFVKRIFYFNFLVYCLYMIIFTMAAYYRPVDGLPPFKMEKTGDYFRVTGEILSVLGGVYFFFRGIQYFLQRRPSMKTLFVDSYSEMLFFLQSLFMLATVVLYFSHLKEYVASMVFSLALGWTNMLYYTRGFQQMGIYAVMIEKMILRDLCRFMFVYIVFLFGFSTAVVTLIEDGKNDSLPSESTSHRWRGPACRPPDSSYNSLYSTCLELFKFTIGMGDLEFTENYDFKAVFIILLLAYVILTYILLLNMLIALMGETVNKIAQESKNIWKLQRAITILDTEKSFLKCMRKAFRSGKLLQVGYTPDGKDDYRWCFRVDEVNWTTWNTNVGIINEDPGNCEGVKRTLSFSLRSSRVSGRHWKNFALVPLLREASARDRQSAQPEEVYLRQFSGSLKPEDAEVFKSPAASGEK
#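 Cells expressing TRPV1 were dye-loaded with Fluo-8 and read kinetically: 10 s baseline, 3 min after compound (agonist portion), then 2 min after EC20 capsaicin (allosteric enhancer portion). Calcium-bound dye fluorescence at 480/520 nm.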
# Six1-Eya2 inh – blocks human Six1 binding to Eya2; Q15475+O00167; AlphaScreen GST-Six1/His-Eya2 binding, biochemical; stronger effect = lower value; control for the full effect not named in the record; activity change, % (no concentration beside the values); hit rate 0.56% among 360,000; AID 651725; in the data active = activity change below about -65%; inconclusive = about -30% to -65%; inactive = above about -30%; further: on the % scale 0 is the no-effect control and ±100 the full control effect; compound concentration not given in the record
#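 GST-Six1 + His-Eya2 (5X stock: 250/500 nM); Tris pH 8.0, 300 mM NaCl, 0.05% BSA, 0.02% Tween 20; GSH donor/Ni acceptor beads; 1 h 37 °C dark; AlphaScreen readout.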
# TRPML1 blocker – human mucolipin-1 channel inhibition; activity change, negative = inhibition, % (test concentration not listed); TRPML1-inducible cells, Ca2+ dye fluorescence, FDSS; stronger effect = lower value; inhibition of EC80 agonist-evoked calcium signal; AID 624415; hit rate 0.02% among 390,000; Q9GZU1; in the data active means activity change below about -50%; inconclusive means about -30% to -50%; inactive means above about -30%;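 further: stimulus is agonist 54-4 at its EC80 concentration; on the % scale 0 is the no-effect control and ±100 the full control effect; compound concentration not given in the record; the text of the record puts the active cut at -80%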
#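 Calcium fluorescence in TRPML1-DL cells induced overnight with Tet: a 110 s read after compound pin addition, then a 110 s antagonist read after challenge with 54-4 at 4 uM final (EC80).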
# CtBP-E1A inh – CtBP/E1A binding inhibition. activity change, % (test concentration not listed). AID 651724. AlphaScreen GST-E1A/His-CtBP binding, 1536-well; stronger effect = lower value; control for the full effect not named in the record. hit rate 0.49% among 340,000; in the data active means activity change below about -65%; inconclusive means about -30% to -65%; inactive means above about -30%; further: on the % scale 0 is the no-effect control and ±100 the full control effect; compound concentration not given in the record
#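 Steps: dispense buffer (Tris pH 8.0, NaCl 300 mM, TCEP 1 mM, BSA, Tween 20); add 5X protein mix (GST-E1A, His-CtBP, 125 nM each); pin 23 nL compound; 2 h at 37 °C, dark; add 5X beads (50 ug/mL); 1 h; read.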
# Starred values were filed as active, the others as inactive; u = inconclusive; x = not tested or not shown; & = joins results of further samples.
smiles	TRPML1 ag	Six1-Eya2 inh	CtBP-E1A inh	TRPV1 potentiator	D2 potentiator	TRPML1 blocker
CCOc1ccc(CC(=O)Nc2cc(=O)n(C)c(=O)n2C)cc1	-0.5	-8	0	-1	-4	12
CCC(=O)c1c(NC)cc(C)oc1=O	0.0	-4	-15	u	-6	1
COc1ccc(N2C(=O)/C(=C/c3ccc([N+](=O)[O-])cc3)C=C2c2ccccc2)cc1	0.5	-1	2	8	-2	-8
CC(=O)Nc1ccc(C=C(C#N)c2ccc(C)cc2)cc1	-0.1	4	3	x	-5	-12
CCOc1ccc(-n2c(=O)[nH]cc(C(=O)N3CCc4ccccc43)c2=O)cc1	-0.3	0	0	4	-9	-9
N#Cc1cnc(N)c(Br)c1	0.0	3	8	-2	-4	29
O=C(NCc1ccccc1)c1nncc(-c2ccccc2)n1	0.1	-4	-17	13	-15	-1
Cc1ccc(OCCNC(=O)c2cccc(S(=O)(=O)N3CCN(Cc4ccccc4)CC3)c2)cc1	0.9	-7	-16	x	-7	5
COc1ccc(S(=O)(=O)Nc2ccc3c(c2)CC(=O)N([C@@H](C)CO)C[C@@H](C)[C@@H](CN(C)Cc2ccccc2)O3)cc1	1.0	-5	-4	x	-13	-3
CC(C)c1cc(C(C)C)c(S(=O)(=O)N2c3ccccc3[C@@]3(Br)C[C@H]4C(=O)N[C@@H](Cc5ccccc5)C(=O)N4[C@@H]23)c(C(C)C)c1	0.5	-10	-13	x	-10	-13
Cc1cc(NC(=O)CN2C(=O)CC(c3ccco3)Sc3ccccc32)no1 (stereo unspecified)	-1.5	-4	2	27	-4	6
CCN(C(=O)c1ccco1)C1C2CC3CC(C2)CC1C3 (stereo unspecified)	1.9	2	-1	-2	-11	3
Cc1ccccc1CNS(=O)(=O)c1c(C(=O)N2CCCCC2)c(C)n(C)c1C	-0.3	1	11	-2	-6	-1
Cc1onc(-c2ccccc2)c1C(=O)N1CCCN2C(=O)c3ccccc3C21 (stereo unspecified)	-0.7	12	-3	x	-2	-10
COc1cc(Cl)ccc1OCc1cc(C(=O)N(C)CC2CCCCO2)no1 (stereo unspecified)	-0.8	0	2	-17	-11	-5
CC(C)CC1Nc2ncnc(N3CCN(c4ccccn4)CC3)c2N(Cc2ccccc2)C1=O (stereo unspecified)	0.6&-0.6	-9&18	19	x	-14&-3	10&-19
Cn1c2ccccc2n2c(=O)c(Cl)c(-c3ccccc3)c(C#N)c12	3.4	-13	5	-3	10	-11
CCCn1c(SCC(=O)Nc2cc(C)on2)n[nH]c1=O	0.1	0	x	x	0	-11
S=c1[nH]nc(COc2ccccc2)n1C1CCCCC1	2.2	-11	-3	11	-13	3
Cc1c(Cl)cccc1NC(=O)CC(Cc1ccccc1)C(=O)O (stereo unspecified)	-0.8	5	3	1	-6	1
Cc1ccc(CN(C(=O)C(F)(F)F)C(C(=O)NC2CCCCC2)c2ccco2)cc1 (stereo unspecified)	0.5	-1	-4	-2	22	1
COc1ccccc1/C=C/CN1CCC(CO)(Cc2ccccc2)CC1	-0.2	-1	-21	19	-17	-25
COc1ccc(-c2cc3c(c4c2ccn4C)C2CCC3C2)cc1 (stereo unspecified)	-0.2	-28	-24	x	0	-20
Cc1cc(=O)oc2cc(OCC(=O)Nc3ccc4[nH]c(=O)[nH]c4c3)ccc12	-0.4	-14	16	-11	-12	-4
O=S1(=O)CC(N2CCN(CCO)CC2)CN1Cc1cn(Cc2ccc(C(F)(F)F)cc2)nn1 (stereo unspecified)	-0.7	11	4	x	x	x
CCOc1ccc(NC(=O)C(C)Sc2nccn2C)cc1 (stereo unspecified)	0.0	6	-2	9	-11	3
COC(=O)CCC(=O)NNC(=O)Cc1ccccc1	0.3	21	14	8	-2	1
COc1ccc(N2CCN(C(=O)/C=C/c3ccco3)CC2)cc1	1.1	-14	-2	5	0	-2
O=C(O)C1C2C=CC3(CN(C4CCCC4)C(=O)C13)O2 (stereo unspecified)	0.2	8	0	5	-5	10
CCN(C[C@H]1N[C@@](CC)(C(=O)OC)[C@H]2C(=O)N(C)C(=O)[C@@H]12)C(=O)c1ccc(C(C)(C)C)cc1	1.5	4	8	x	-4	6
CCCNC(=O)CN1C(=O)NC(CC)(c2ccc(F)cc2)C1=O (stereo unspecified)	0.2	6	-3	-5	-4	-8
COc1ccccc1N1CCN(C(=O)c2ccco2)CC1	-0.3	0	4	-3	2	4
CCCCn1c(N)c(N(CCOC)C(=O)c2ccc(NC3CC3)c([N+](=O)[O-])c2)c(=O)[nH]c1=O	0.1	7	-18	17	-20	-17
Cn1c(=O)cc(SCC(=O)NCCCN2CCN(c3ccc(F)cc3)CC2)c2ccccc21	2.8	-1	-8	1	-34	-13
Cc1ccc(C(=O)N/N=C\c2sccc2C)cn1	0.4	0	x	3	-15	1
Cc1nnc(NC(=O)C2CCN(S(=O)(=O)c3ccc(F)c(Cl)c3)CC2)o1	0.1	u	-15	29	-3	13
CC(=O)Oc1ccc(/C=N/NC2=NS(=O)(=O)c3ccccc32)cc1	2.3	0	-10	u	1	3
Cn1c(=O)[nH]c(=O)c2c1nc(N1CCCCC1)n2CC(O)COc1ccccc1 (stereo unspecified)	0.0	18	-19	3	-4	-7
CCOC(=O)C(Cc1ccccc1)NC(=O)CCc1nnc2ccc(N3CCCCC3)nn12 (stereo unspecified)	1.1	18	5	6	-1	-7
CCN(CC(=O)NCc1ccccn1)S(=O)(=O)c1cc(Cl)ccc1Cl	-0.9	-1	8	1	-3	37
CC(C(=O)NC(C)(C)C)N1C(=O)c2cccc3cccc(c23)C1=O (stereo unspecified)	-0.2	8	7	-41	-8	-7
COc1ccc(S(=O)(=O)Nc2ccc3c(c2)CCC3)cc1	0.6	0	1	17	-8	2
C/C(CC(=O)N(C(C)C)C(C)C)=N\NC(=O)c1ccccc1Br	-0.3	4	-10	-1	-14	-8
CCOC(=O)c1c(S(=O)(=O)NCC(=O)N2CCN(c3ccc(F)cc3)CC2)c(C)n(C)c1C	-0.6	4	-12	-3	-9	-4
Cc1cc2nc(-c3nnnn3-c3c(C)cccc3C)c(=O)[nH]c2cc1C	-1.0	-18	-6	x	x	x
CCn1c(CC(=O)Nc2ccc(F)cc2)nnc1SCC(=O)Nc1nnc(C)s1	-0.4	5	24	4	0	6
C=CCN(c1ccc(C(=O)NCCc2ccccc2)cc1)S(C)(=O)=O	1.5	5	4	-3	-2	-10
COc1ccc(C)cc1NC(=O)C1CCCN(S(=O)(=O)c2cccc3cccnc23)C1 (stereo unspecified)	3.1	-9	-4	2	4	25
Cc1ccc(S(=O)(=O)N2C(=O)CCC2C(=O)O/N=C(\N)c2cccc([N+](=O)[O-])c2)cc1 (stereo unspecified)	1.0	-10	-9	-5	0	29
O=C(c1ccc(F)cc1)N1CCC(n2nnc3ccccc32)CC1	0.4	-3	0	0	-9	-1
COc1cc(C(=O)n2nc(C)cc2C)cc(OC)c1OC	-1.0	3	8	-8	-9	7
COc1ccc2cc(C(=O)N/N=C/c3cc(OC)c(OC)c(OC)c3)[nH]c2c1	0.5	u	u	4	-1	-21
COc1ccc(CCNC2=NCCS2)cc1	0.0	2	1	7	1	5
COCCN1Cc2cccc(C(=O)Nc3ccc4c(c3)OCCO4)c2C1=O	-0.3	0	1	-1	-3	10
C=CCN1C(=O)CN=C1Nc1ccc(OC)cc1OC	-0.3	-2	0	x	1	-1
Cc1cccc(-n2c(Cc3cc(=O)[nH]c(=O)[nH]3)nnc2SCC(=O)Nc2cccc(C(F)(F)F)c2)c1	1.0	8	x	6	-21	2

# Profiles from above:
# Listed for CCOc1ccc(NC(=O)C(C)Sc2nccn2C)cc1 (stereo unspecified) → TRPML1 ag = 0.0; Six1-Eya2 inh = 6; CtBP-E1A inh = -2; TRPV1 potentiator = 9; D2 potentiator = -11; TRPML1 blocker = 3
# Listed for CC(C(=O)NC(C)(C)C)N1C(=O)c2cccc3cccc(c23)C1=O (stereo unspecified) → TRPML1 ag = -0.2; Six1-Eya2 inh = 8; CtBP-E1A inh = 7; TRPV1 potentiator = -41; D2 potentiator = -8; TRPML1 blocker = -7

# Other results follow:
smiles	TRPML1 ag	Six1-Eya2 inh	CtBP-E1A inh	TRPV1 potentiator	D2 potentiator	TRPML1 blocker
Cc1cc(C)nc(CCNC(=O)CC2C(=O)NCCN2Cc2ccc(F)cc2Cl)n1 (stereo unspecified)	1.4	-3	-11	5	-4	1
Oc1ccc(Cl)cc1C1=NNC(c2cc(Br)cc3c2OCOC3)C1 (stereo unspecified)	-0.6	-2	-18	10	-4	7
CCCC(=O)C1=C(O)C(C(=O)OC)C(C)(C)CC1=NC(C)(C)C (stereo unspecified)	-1.1	-1	-3	-9	-24	13
COc1ccccc1N(C(=O)c1snc(C(N)=O)c1N)C(C(=O)NC1CCCC1)c1ccco1 (stereo unspecified)	2.0	-1	5	-7	1	15
CC(=O)N1CCc2c(sc(NC(=O)CCS(=O)(=O)c3ccc(C)cc3)c2C(N)=O)C1	-0.1	-7	10	4	-3	1
COc1ccc(-n2c(=S)[nH]c3cc(C(=O)NCc4ccco4)ccc3c2=O)cc1OC	-0.9&-0.5	-7&1	-2&1	-8&11	-24&-6	0&21
O=[N+]([O-])c1ccc(COc2ncnc3ccccc23)cc1	-0.3	-7	-7	2	12	-10
O=C(CCNC(=O)Cn1ccc2ccccc2c1=O)NCCN1CCN(c2cccc(Cl)c2)CC1	-0.8	1	-2	-21	-39	1
CC(=O)N1CCN(CC(c2ccccc2)c2ccccc2)CC1	-0.7	0	x	7	-5	10
COc1ccc(C)cc1NC(=O)NC(C)c1ccc2c(c1)OCO2 (stereo unspecified)	1.1	0	-20	-7	-30	-13
C=CCNC(=S)NNC(=O)c1cccc2ccccc12	0.6	5	2	x	-16	0
CC(C)Oc1ccc(C(=O)Nc2ccc(NC(=O)c3ccco3)c(Cl)c2)cc1	-0.5	6	2	-22	12	7
Cn1c(NC(=O)C(C)(C)Oc2ccc(Cl)cc2)cc(=O)n(C)c1=O	0.5	5	4	-6	0	-14
O=C(CSC(=S)N1CCOCC1)N1N=CCC1c1ccccc1 (stereo unspecified)	15	24	1	16	-15	-9
CCOC(=O)CNS(=O)(=O)c1ccc2c3c(cccc13)C(=O)N2CC	0.0	-24	9	-9	6	23
Cc1ccccc1-n1c(SCC(=O)Nc2ccccc2Cl)nc2n[nH]c(C)c2c1=N	2.3	-20	u	8	4	62
CCOC(=O)/C(C#N)=C/c1cccc([N+](=O)[O-])c1	0.3	1	x	-4	-14	-7

# Screening data (PubChem)
